Screens: PubChem BioAssay, National Center for Advancing Translational Sciences (NCATS)
VACV Venus inh = qHTS for Stage-Specific Inhibitors of Vaccinia Orthopoxvirus: Venus Reporter Primary qHTS; 0.46% of 330,000 active; Potency, µM (top dose mostly 36.5 µM), inactives show at the highest dose activity change, negative = inhibition, most hits filed as inhibitors; Vaccinia virus Venus reporter expression, fluorescence; AID 720580, 2013; active means well fitted inhibition curve with a large enough effect; inconclusive means small, poorly fitted or top-dose-only effect; inactive means no such curve, though single readings can be large or run the other way; tested in A549 cells; note: nearly all actives have a fitted effect of over 30% in size; inactives centre near -10
VACV mCherry inh = qHTS for Stage-Specific Inhibitors of Vaccinia Orthopoxvirus: mCherry Reporter Primary qHTS; Vaccinia virus mCherry reporter infection, fluorescence; about a quarter of the inactives have no number; Potency, µM (top dose mostly 36.5 µM), for inactives: at the highest dose activity change, negative = inhibition, actives largely listed as inhibitors; 0.63% of 310,000 active; AID 720579, 2013; active = well fitted inhibition curve with a large enough effect; inconclusive = small, poorly fitted or top-dose-only effect; inactive = no such curve, though single readings can be large or run the other way; tested in A549 cells; note: nearly all actives have a fitted effect of over 35% in size; inactives centre near -10
* = called active by the depositor; & = joins results of further samples; [ ] = remark or other dose. % is set by controls: 0 for no effect and ±100 for the full control effect; potency is the fitted concentration of half-maximal effect.

Screening NC(=O)c1ccccc1NC(=O)c1ccccc1S(=O)(=O)c1ccccc1[N+](=O)[O-] returned VACV Venus inh -3% and VACV mCherry inh -1%.
`Cc1cc2ccccc2n2c(SCC(=O)Nc3cccc(C(F)(F)F)c3)nnc12` gave VACV Venus inh -10% and VACV mCherry inh -7%.
`Cc1ccc(C(=O)NCC(=O)OC(C)C(=O)NCCC2=CCCCC2)cc1C` (stereo not drawn) gave VACV Venus inh -4% and VACV mCherry inh -2%.
Screening CCCc1cc(C(=O)Nc2cccnc2Cl)no1 returned VACV Venus inh inconclusive and VACV mCherry inh -17%.
For CC(C)(O)CCC(O)[C@@](C)(O)C1CC[C@]2(O)C3=CC(=O)C4CC(O)C(O)C[C@]4(C)C3CC[C@]12C (stereo partly drawn) the results were VACV Venus inh -10% and VACV mCherry inh -13%.
COc1ccc(OC)c(NC(=S)Nc2ccccc2)c1 was read as VACV Venus inh -9% and VACV mCherry inh -6%.
`COc1ccccc1CNS(=O)(=O)c1ccc2c(c1)oc(=O)n2C` gave VACV Venus inh -7% and VACV mCherry inh -17%.
Screening COCCOC(=O)C1=C(N)Oc2c(c(=O)oc3ccccc23)C1c1ccncc1 (stereo not drawn) returned VACV Venus inh -3% and VACV mCherry inh inactive.
For COc1cccc(NC(=O)CN2CCN(S(=O)(=O)c3ccc(F)cc3)CC2)c1 the results were VACV Venus inh -7% and VACV mCherry inh -14%.
For Cc1ccccc1NC(=O)COC(=O)c1ccc(CSc2ccc(Cl)cc2)cc1 the results were VACV Venus inh -1% and VACV mCherry inh -9%.
O=C(Nc1cc(Cl)cc(Cl)c1)c1cc(S(=O)(=O)N2CCc3ccccc3C2)ccc1F was read as VACV Venus inh -14% and VACV mCherry inh -15%.
Screening NC(C(=O)NC1C(=O)N2C(C(=O)O)=C(Cl)CSC12)c1ccccc1 (stereo not drawn) returned VACV Venus inh -8% and VACV mCherry inh -11%.
For CCC1CCCCN1CCCNC(=O)Cn1nc(C)n2nc(-c3ccccc3)cc2c1=O (stereo not drawn) the results were VACV Venus inh 0%[7.34 µM] and VACV mCherry inh 20%[7.34 µM].
CC1CN(C(=O)Nc2ccc3snnc3c2)c2ccccc21 (stereo not drawn) was read as VACV Venus inh -10% and VACV mCherry inh inactive.
`O=C(CCNC(=O)c1ccccc1)NCC1CCCCC1` gave VACV Venus inh -5% and VACV mCherry inh -19%.
Screening O=c1[nH]c2ccccc2cc1-c1nnn(-c2ccc(Cl)c(Cl)c2)n1 returned VACV Venus inh inconclusive and VACV mCherry inh -23%.
Screening Cc1ccc2c(c1)C(c1ccc([N+](=O)[O-])cc1)=NNC(c1ccc(Br)cc1)=N2 returned VACV Venus inh -14% and VACV mCherry inh -12%.
O=C(NCc1cccnc1)/C(=C\c1ccc(-c2ccc(Br)cc2)o1)S(=O)(=O)c1ccccc1 was read as VACV Venus inh 10µM* and VACV mCherry inh inconclusive.
`O=C(Nc1ccccc1)OC1C2CCC1C(N1CCCCC1)CC2` (stereo not drawn) gave VACV Venus inh -6%.
CC(C)CCn1c(CN2CCN(c3cccc(Cl)c3)CC2)nc2c1c(=O)n(C)c(=O)n2C was read as VACV Venus inh -24% and VACV mCherry inh -7%.
`COc1cc(C)c(Cl)cc1S(=O)(=O)NCc1ccco1` gave VACV Venus inh -6%.
`O=C(NC1CC1)C1=C[C@H](C2CCCCC2)C[C@H](OCCCCO)O1` gave VACV Venus inh -15% and VACV mCherry inh inactive.
`CCn1c(NCc2cccc(OC)c2OC)nc2ccccc21` gave VACV Venus inh -18% and VACV mCherry inh -5%.
Screening C[C@H](CO)N1C[C@H](C)[C@H](CN(C)C(=O)Nc2cccc(F)c2)Oc2cc(C#CC3(O)CCCC3)ccc2S1(=O)=O returned VACV Venus inh -16% and VACV mCherry inh -3%.
Screening O=C(NC1CCCCCC1)c1c2c(nc3ccccc13)CCN(Cc1ccccc1)C2 returned VACV Venus inh 3% and VACV mCherry inh -9%.
`CC(C)(C)c1cc(=O)[nH]c(SCc2ccccc2Cl)n1` gave VACV Venus inh -8% and VACV mCherry inh -7%.
`Cc1nn2c(=O)cc(COC(=O)c3cccc(NC(=O)COc4ccc(C)c(C)c4)c3)nc2s1` gave VACV Venus inh -7% and VACV mCherry inh -13%.
For O=C(CCc1nc2ccccc2[nH]c1=O)OCc1ccc(S(=O)(=O)N2CCOCC2)cc1 the results were VACV Venus inh -8% and VACV mCherry inh -20%.
For CCOc1c2ccc(C(=O)NCc3cc(C(F)(F)F)cc(C(F)(F)F)c3)cc2nn1CCOC the results were VACV Venus inh -24% and VACV mCherry inh -3%.
Screening O=C(C1CCCO1)N1CCN(S(=O)(=O)c2ccc(F)cc2)CC1 (stereo not drawn) returned VACV Venus inh -9% and VACV mCherry inh inactive.
For CN(Cc1ccccc1)c1nc(N)c([N+](=O)[O-])c(NCc2ccccc2)n1 the results were VACV Venus inh -30% and VACV mCherry inh inconclusive.
CN(C(=O)CSc1nnc(-c2ccccc2F)o1)c1ccccc1 was read as VACV Venus inh -6% and VACV mCherry inh -9%.
For COc1ccc(-c2csc(NC(=O)c3cccs3)c2C(=O)O)cc1OC the results were VACV Venus inh -5% and VACV mCherry inh -14%.
`CC(C)N1CSC(=S)N(Cc2ccccc2)C1` gave VACV Venus inh -9% and VACV mCherry inh -8%.
Screening OCc1ccc(-c2nn(Cc3ccccc3)c3ccccc23)o1 returned VACV Venus inh -23%&-16% and VACV mCherry inh -25%&-16%.
`Cc1ccc(NS(=O)(=O)c2ccc3c(c2)NC(=O)C(C)C(=O)N3)c(Br)c1` (stereo not drawn) gave VACV Venus inh -9% and VACV mCherry inh -26%.
Screening COc1ccc(C)cc1N(C(=O)COc1cccc(F)c1)c1nc2ccccc2s1 returned VACV Venus inh -15% and VACV mCherry inh -22%.
CCn1c(-c2cccnc2)n[nH]c1=S was read as VACV Venus inh -6% and VACV mCherry inh inactive.
Screening CCC1CCC(c2nnc(-c3ccc([N+](=O)[O-])cc3)o2)CC1 (stereo not drawn) returned VACV Venus inh -7% and VACV mCherry inh -12%.
`CCOC(=O)c1cc(-c2ccc(C)cc2)nc2nc(SC)[nH]c(=O)c12` gave VACV Venus inh -22% and VACV mCherry inh inconclusive.
For O=C(O)COCC(=O)N1CCN(C(c2ccccc2)c2ccccc2)CC1 the results were VACV Venus inh -9% and VACV mCherry inh -15%.
Screening CCN1CCN(C(=O)/C=C/c2ccc([N+](=O)[O-])cc2)CC1 returned VACV Venus inh -10% and VACV mCherry inh -15%.
Screening N/C(=N\c1nc2c(c(=O)[nH]1)CCC2)Nc1cccc(Cl)c1 returned VACV Venus inh inconclusive and VACV mCherry inh inconclusive.
For CCOC(=O)C1(Cc2cccc(OC)c2)CCN(C(C)CC(C)(C)O)CC1 (stereo not drawn) the results were VACV Venus inh -5% and VACV mCherry inh inactive.
CCOCCCNc1ncnc2c1[nH]c1ccccc12 was read as VACV Venus inh inconclusive.
For CC(=O)Nc1ccc2c(c1)C(=O)c1cccc(C(=O)O)c1-2 the results were VACV Venus inh -1% and VACV mCherry inh inactive.
Screening Cc1cccc(N2CC(c3nc4ccc(C)cc4[nH]3)CC2=O)c1 (stereo not drawn) returned VACV Venus inh 2% and VACV mCherry inh -5%.
For Cc1cc(S(=O)(=O)Nc2ccc(O)c(Sc3nc4ccccc4s3)c2)ccc1Cl the results were VACV Venus inh -18% and VACV mCherry inh -17%.
Screening COc1ccc(C)cc1NC(=O)c1nnn(Cc2cccc(C(F)(F)F)c2)c1N returned VACV Venus inh -7% and VACV mCherry inh inactive.
For COc1cc(C2C(C(=O)Nc3ccc(C)cc3C)=C(C)Nc3nc(SCc4ccccc4)nn32)cc(OC)c1OC (stereo not drawn) the results were VACV Venus inh -11% and VACV mCherry inh -8%.
For CC1=C(C(=O)Nc2ccccn2)C(c2ccc(Cl)cc2Cl)NC(=S)N1 (stereo not drawn) the results were VACV Venus inh 2% and VACV mCherry inh -14%.
Screening CC(=O)c1ccc(OCc2cc(C(=O)NC3CCCCC3)no2)cc1 returned VACV Venus inh -10% and VACV mCherry inh -24%.
Screening CSc1nc(SCC(N)=O)c2c3c(sc2n1)CN(C)CC3 returned VACV Venus inh -6%.
Screening O=C(NCc1ccncc1)c1cncc(Br)c1 returned VACV Venus inh -11% and VACV mCherry inh inactive.
`CCOc1cc(C2C(C(=O)OC)=C(C)NC3=C2C(=O)c2ccccc23)c(Br)cc1O` (stereo not drawn) gave VACV Venus inh -16% and VACV mCherry inh -7%.
Screening Fc1ccccc1N1CCN(c2nccn3nc(-c4ccc(Br)cc4)cc23)CC1 returned VACV Venus inh 13% and VACV mCherry inh -4%.
O=C(c1ccc(Cl)cc1)c1ccc(CN2C(=O)c3ccccc3C2=O)o1 was read as VACV Venus inh -4% and VACV mCherry inh -13%.
CCOC(=O)c1cc(-c2ccc(F)cc2)n(CCC(=O)NCc2ccc(C)cc2)c1C was read as VACV Venus inh -9% and VACV mCherry inh -21%.
`Cc1ccc(NC(=O)Nc2cccs2)c(C)c1` gave VACV Venus inh -1%[7.34 µM] and VACV mCherry inh -11%[7.34 µM].
`Cc1cccc(C(=O)NNC(=O)C2CCCCC2)c1O` gave VACV Venus inh -8% and VACV mCherry inh inactive.

2 entries drawn at random from those above, as already listed:
`COc1cc(C)c(Cl)cc1S(=O)(=O)NCc1ccco1` gave VACV Venus inh -6%.
Screening O=C(NCc1ccncc1)c1cncc(Br)c1 returned VACV Venus inh -11% and VACV mCherry inh inactive.

Other records
`CC1C/C(=N/N2C(=O)CSC2=S)CC(C)(C)C1` (stereo not drawn) gave VACV Venus inh -5%.
Screening Cc1ccc(/C=C2/SC(=S)N(CCCC(=O)Nc3cc([N+](=O)[O-])ccc3O)C2=O)cc1 returned VACV Venus inh -7% and VACV mCherry inh inactive.
`Cc1ccc(-c2noc(-c3nnn(CC(=O)Nc4cccc(C(F)(F)F)c4)c3N)n2)cc1` gave VACV Venus inh -5% and VACV mCherry inh -11%.
`Nc1nc(SCC(=O)NC2CCCCC2)n[nH]1` gave VACV Venus inh inconclusive and VACV mCherry inh -2%.
For CCOC1=C2[C@@H](CN(S(=O)(=O)c3ccc(C)cc3)[C@H]2c2cccc3ccccc23)[C@H]2C(=O)N(c3ccccc3)C(=O)[C@H]2C1 the results were VACV Venus inh -5% and VACV mCherry inh inactive.
For O=[N+]([O-])c1cccc(S(=O)(=O)Nc2ccc(-c3ccc(N4CCOCC4)nn3)cc2)c1 the results were VACV Venus inh -14% and VACV mCherry inh inactive.
COC(=O)Nc1nn(-c2ccc(Cl)cc2)c(=O)c(C#N)c1C was read as VACV Venus inh -9% and VACV mCherry inh -7%.
Screening O=C(CC(O)CCc1ccccc1)c1ccc(O)cc1 (stereo not drawn) returned VACV Venus inh -4% and VACV mCherry inh -1%.
For COCCn1c(=NC(=O)CCS(=O)(=O)c2ccccc2)sc2cc(F)ccc21 the results were VACV Venus inh -2% and VACV mCherry inh -2%.
`COc1ccc(C(C)=O)cc1COC(=O)CCNS(=O)(=O)c1ccc(C)c(C)c1` gave VACV Venus inh -14% and VACV mCherry inh -14%.
CC(C)(C)N1C(=O)c2ccccc2NC(=O)C1C(=O)NCCc1ccccc1 (stereo not drawn) was read as VACV Venus inh -1% and VACV mCherry inh -6%.
Cc1ccccc1Nc1nc(N)nc(CSc2nc3ccccc3c(=O)n2C)n1 was read as VACV Venus inh -16%.
`Cc1ccc(OCC(=O)NC2CCS(=O)(=O)C2)c([N+](=O)[O-])n1` (stereo not drawn) gave VACV Venus inh 11% and VACV mCherry inh inactive.
COc1ccc(S(=O)(=O)O/N=C2\CCCc3ccccc32)cc1 was read as VACV Venus inh -5% and VACV mCherry inh -10%.
For NNC(=O)CNC(c1ccccc1)c1cc(Br)ccc1N (stereo not drawn) the results were VACV Venus inh -10% and VACV mCherry inh -19%.
Screening Cc1cccc2cc(C#N)c(NCCCn3ccnc3)nc12 returned VACV Venus inh -12% and VACV mCherry inh -3%.
CN(C)c1ccc(/C=C/C(=O)c2cccnc2)cc1 was read as VACV Venus inh -8% and VACV mCherry inh -7%.
Cc1cc(Br)ccc1NC(=O)CN(C)C(=O)CNC(=O)Cc1ccccc1 was read as VACV Venus inh -13% and VACV mCherry inh -5%.

In the list so far, 8 have bromine:
Screening Cc1ccc2c(c1)C(c1ccc([N+](=O)[O-])cc1)=NNC(c1ccc(Br)cc1)=N2 returned VACV Venus inh -14% and VACV mCherry inh -12%.
O=C(NCc1cccnc1)/C(=C\c1ccc(-c2ccc(Br)cc2)o1)S(=O)(=O)c1ccccc1 was read as VACV Venus inh 10µM* and VACV mCherry inh inconclusive.
`Cc1ccc(NS(=O)(=O)c2ccc3c(c2)NC(=O)C(C)C(=O)N3)c(Br)c1` (stereo not drawn) gave VACV Venus inh -9% and VACV mCherry inh -26%.
Screening O=C(NCc1ccncc1)c1cncc(Br)c1 returned VACV Venus inh -11% and VACV mCherry inh inactive.
`CCOc1cc(C2C(C(=O)OC)=C(C)NC3=C2C(=O)c2ccccc23)c(Br)cc1O` (stereo not drawn) gave VACV Venus inh -16% and VACV mCherry inh -7%.
Screening Fc1ccccc1N1CCN(c2nccn3nc(-c4ccc(Br)cc4)cc23)CC1 returned VACV Venus inh 13% and VACV mCherry inh -4%.
For NNC(=O)CNC(c1ccccc1)c1cc(Br)ccc1N (stereo not drawn) the results were VACV Venus inh -10% and VACV mCherry inh -19%.
Cc1cc(Br)ccc1NC(=O)CN(C)C(=O)CNC(=O)Cc1ccccc1 was read as VACV Venus inh -13% and VACV mCherry inh -5%.
